UCH37 DUB inh: inhibitors of human UCH37 deubiquitinase, primary screen, biochemical, Ub-AMC cleavage, fluorescence; purified proteasome/UCH37; inhibition, % (no concentration beside the values); 0.33% of 330,000 active; AID 588478, 2011; Ubiquitin carboxyl-terminal hydrolase isozyme L5 (Homo sapiens), Q9Y5K5;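 active means mean of two replicates above 20%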;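 further: 0% = compound-free wells with enzyme and 100% = wells lacking proteasome; stock transfer was 100 nL into about 20 µL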
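system = Proteasome-associated human UCH37 deubiquitinase | amount = 0.15 nM proteasome as dispensed | medium = pH 7.4 Tris-HCl (50 mM) with ovalbumin, ATP-MgCl2, DTT | incubation = 30 min preincubation with enzyme, 25 min cleavage at room temperature | detection = AMC fluorescence 355/460 nm | read-out basis = percent inhibition | controls = no-proteasome and no-compound wells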
LANA-H2B inh: blockers of LANA interaction with H2A/H2B – biochemical, FP readout, HTS, primary screen; AID 2629, 2010; 0.6% of 320,000 active; inhibition, % (test concentration not listed); Protein LANA1 (Human herpesvirus 8 type P (isolate GK18)), Q9QR71; cell-free LANA-H2A/H2B peptide, fluorescence polarization; in the data active means inhibition mostly above about 10%, no sharp cut-off; inactive means mostly below about 6.7%;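 further: stock transfer was 7.5 nL into about 10 µL; 0% = median of vehicle wells and 100% = median of positive control wells; one replicate is shown; the record names a cut of 25% in any replicate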
Ecoli growth: E. coli growth inhibition, primary screen, OD600 | Escherichia coli growth, 23 h; hits give low values | AID 1053175, 2014 | OD600 absorbance (no concentration beside the values) | 0.21% of 330,000 active;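 active means OD600 absorbance below the run mean of sample wells minus 3.6 SD, in any replicate, cut at about 0.56 in these data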;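 further: stock transfer was 300 nL into about 60 µL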
A1 inh: caspase 3/7 activation in MEF A1-2A-BIM cells, primary screen, A1 inhibitor project, cell-based, luminescence, HTS. 0.066% of 330,000 active. caspase activation, % (no concentration beside the values). Caspase-Glo 3/7 luminescence, 3 h; percent of clofoctol response, vehicle zero;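 active means over half of replicate activation scores above 10%, or exactly half above 10 with the replicate mean above 10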;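 further: wells of about 30 µL received 50 nL stock; many hits fall short of the cut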
Vif TR-FRET: inhibitors of Vif binding to APOBEC3G peptide, primary screen, biochemical, TR-FRET, GST-Vif 1-94, biotin-A3G peptide, dose response retest (AID 1117319). Virion infectivity factor (Human immunodeficiency virus type 1 group M subtype B (isolate …. TR-FRET GST-Vif / biotin-A3G peptide binding; higher % means a stronger effect; test concentration not given here; strong numbers were not always called active. inhibition, %; hits with a dose series show IC50 in µM. 0.57% of 260,000 active;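 active means above the screen mean plus three standard deviations and confirmed in dose response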;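 further: Vif residues 1-94 fused to GST binding biotinylated APOBEC3G peptide 110-148; 0% = full assay without inhibitor and 100% = GST in place of GST-Vif; retest series ran down from 100 µM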
Beta2AR agonist: beta2AR agonists driving receptor internalization, primary screen, cell-based, FAP fluorogen, flow cytometry; Am2.2-beta2AR cells; reference of the scale not given here; response, % (test concentration not listed); 0.43% of 340,000 active; AID 504454, 2011;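 active means response above a set limit, near 3 SD of response in nonfluorescent compounds, cut at about 42% in these data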;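 further: stock transfer was 100 nL into about 11 µL; a reference agonist was the positive control; negative values mostly stem from fluorescent compounds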
HNF4A DNA FP: change in binding of human HNF4A to DNA, primary screen, biochemical, fluorescence polarization, FITC-DNA; 1 h; activity change, % at 10 µM; 0.3% of 360,000 active; in the data active means activity change above about 30%, passing the limit was not always enough;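 further: controls were the assay level and a saturating level of protein; the project sought stronger binding though the title names inhibitors; some compounds called inactive have numbers as strong as hits; positive values seem to mean higher polarization but the record does not say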
* hit, by the source's call; / = not tested or not shown.

The first four compounds as a preview:
| SMILES | Vif TR-FRET | UCH37 DUB inh | A1 inh | HNF4A DNA FP | Beta2AR agonist | LANA-H2B inh | Ecoli growth |
| --- | --- | --- | --- | --- | --- | --- | --- |
| CCNc1nc(C)cc(COC)c1C#N | -1.5% | -458.5 | -1.5 | 0.4 | 7.6 | 5.1 | 0.669 |
| O=C(Nc1cccc(C(F)(F)F)c1)c1n[nH]c(Cn2cncn2)n1 | 2.5% | 0.9 | 0.3 | 0.7 | 3.4 | 0.5 | 0.711 |
| CCc1ccc(NC(=O)CSc2nc(O)cc(=O)n2C2CCCC2)cc1 | 7.2% | 9.7 | 0.1 | 2.8 | -2.3 | 1.2 | 0.712 |
| COc1ccc(CC(=O)Nc2cccc(S(=O)(=O)N3CCOCC3)c2)cc1OC | 0.1% | 5.7 | -0.4 | 0.7 | 7.4 | -14.3 | 0.651 |

Results, previewed entries included:
| SMILES | Vif TR-FRET | UCH37 DUB inh | A1 inh | HNF4A DNA FP | Beta2AR agonist | LANA-H2B inh | Ecoli growth |
| --- | --- | --- | --- | --- | --- | --- | --- |
| CCNc1nc(C)cc(COC)c1C#N | -1.5% | -458.5 | -1.5 | 0.4 | 7.6 | 5.1 | 0.669 |
| O=C(Nc1cccc(C(F)(F)F)c1)c1n[nH]c(Cn2cncn2)n1 | 2.5% | 0.9 | 0.3 | 0.7 | 3.4 | 0.5 | 0.711 |
| CCc1ccc(NC(=O)CSc2nc(O)cc(=O)n2C2CCCC2)cc1 | 7.2% | 9.7 | 0.1 | 2.8 | -2.3 | 1.2 | 0.712 |
| COc1ccc(CC(=O)Nc2cccc(S(=O)(=O)N3CCOCC3)c2)cc1OC | 0.1% | 5.7 | -0.4 | 0.7 | 7.4 | -14.3 | 0.651 |
| C=CCN(Cc1ccc(OC)c(OC)c1)C(=O)N1CCOCC1 | -0.4% | 0.6 | -1.8 | -0.5 | -1.9 | -1.9 | 0.685 |
| O=C(NCc1cccs1)c1ccncc1 | 10.2% | 4.9 | 0.2 | 0.6 | -7.1 | 8.7 | 0.735 |
| Cc1cccc(OC(=O)c2cncc(Br)c2)c1 | 1.0% | 2.1 | 0.9 | -0.2 | -8.4 | -1.9 | 0.704 |
| CC(C)c1ccc(S(=O)(=O)c2nnn3c2nc(N2CCCCC2)c2ccccc23)cc1 | / | -36.0 | 1.1 | -2.9 | -25.8 | 2.3 | 0.78 |

Some values from the results shown:
COc1ccc(CC(=O)Nc2cccc(S(=O)(=O)N3CCOCC3)c2)cc1OC @ Vif TR-FRET = 0.1%
C=CCN(Cc1ccc(OC)c(OC)c1)C(=O)N1CCOCC1 @ Beta2AR agonist = -1.9
